# Hedgehog inh = Sonic Hedgehog pathway inhibition. Shh-LIGHT2 Gli-luciferase reporter, 30 h. inhibition, % (no concentration beside the values). 22,000 compounds, 2.1% hits. AID 2313;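 active = replicate mean of 65% or more; inconclusive = mean lower but half the replicates past it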;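 note: pathway switched on by Shh-conditioned medium diluted 1 in 25 in low serum; 100 nL library stock added to about 40 µL; 0% = median of neutral wells and 100% = positive control level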
# YB-1 expr inh = YB-1 expression inhibition; U2OS, qRT-PCR YB-1 vs CDIP delta delta Cp, 16 h; stronger effect = higher value; zero = DMSO, each unit about twofold; delta delta Cp (YB-1 minus CDIP) (no concentration beside the values); 30,000 compounds, 0.37% hits;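 active = delta delta Cp rounded down to an integer at or above 3, about 3 SD of DMSO wells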;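 note: higher means less YB-1 transcript or more CDIP transcript relative to DMSO; stock transfer was 100 nL into about 100 µL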
# PD-1 reversal = reversal of PD-1 mediated T-cell inhibition; AID 2316; activation, % (no concentration beside the values); 29,000 tested, under 10 active; primary human CD4 T cells, PD-L1 beads, CellTiter-Glo 96 h;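 active = replicate mean of 50% or more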;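 note: 0% = median vehicle wells and 100% = positive control; 100 nL library stock added to about 50 µL; numbers are from one replicate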
# MITF inhib = inhibitors of MITF. TRPM1 promoter luciferase, luminescence, 24 h. inhibition, % (no concentration beside the values). 37,000 compounds, 0.28% hits;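 active = most replicates at 85% or more, or half of them and the mean; inconclusive = half reach 85% but not the mean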;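 note: human melanocyte line stably carrying TRPM1 promoter luciferase reporter; 0% = vehicle wells and 100% = a positive control; the first replicate is given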
# * = called active by the depositor; u = inconclusive; x = not tested or not shown. An excerpt; rates above refer to the full screens.
SMILES,Hedgehog inh,YB-1 expr inh,PD-1 reversal,MITF inhib
COC(=O)C1=COC(OC2OC(CO)C(O)C(O)C2O)C2C1C(O)CC2(C)OC(C)=O (stereo not drawn),-16.5,-0.134,1.4,-2.4
C[C@@H]1CN([C@H](C)CO)C(=O)Cc2cc(NS(=O)(=O)c3cccs3)ccc2O[C@H]1CN(C)Cc1ccccc1,-0.4,0.149,x,-0.3
Cc1ccc(NC(=O)c2ccc(CSc3nnc(-c4ccc(NC(=O)c5ccccc5Cl)cc4)n3C)cc2)cc1,x,x,-1.4,-22.2
N#Cc1sc2nc(-c3ccncc3)ccc2c1N,-20.2,0.0516,0.7,-23.7
C[C@@H]1CN([C@@H](C)CO)C(=O)c2cccc(NC(=O)C3CCCCC3)c2O[C@H]1CN(C)S(=O)(=O)c1ccc(Cl)cc1,-3.1,0.834,x,-4.1
C[C@@H]1CCCCO[C@@H](CN(C)Cc2ccncc2)[C@@H](C)CN([C@H](C)CO)C(=O)c2cc(NS(C)(=O)=O)ccc2O1,-15.4,-0.478,-0.9,0.5
CC(C)[C@@H]1NC(=O)[C@H](Cc2ccccc2)NC(=O)[C@@H](CC(=O)O)NC(=O)CNC(=O)[C@H](CCCN=C(N)N)NC1=O,-34.4,-0.0265,-5.4,0.6
C[C@@H]1CN([C@H](C)CO)C(=O)c2cccc(NS(=O)(=O)c3ccccc3)c2O[C@@H]1CN(C)S(=O)(=O)c1cn(C)cn1,u,-0.623,1.5,3.5
C[C@H]1CN([C@@H](C)CO)C(=O)c2cccc(NS(=O)(=O)c3ccc(F)cc3)c2O[C@H]1CN(C)C(=O)Nc1ccc(F)cc1,-10.6,0.236,x,-1.3
CNC[C@@H]1OCCCC[C@@H](C)Oc2ccc(NC(=O)c3ccncc3)cc2C(=O)N([C@H](C)CO)C[C@@H]1C,x,0.139,0.2,-8.8
C[C@@H]1CN([C@H](C)CO)C(=O)c2cc(NC(=O)Nc3ccccc3)ccc2O[C@H]1CN(C)C(=O)Nc1cccc2ccccc12,x,-0.0775,2.9,-10.6
S=c1[nH]nc(Cn2c(-c3ccccn3)nc3ccccc32)n1-c1cc(Cl)cc(Cl)c1,x,x,0.9,-9.1
C=C1CCC2(C(=O)OC3OC(CO)C(O)C(O)C3O)CCC3(C)C(=CCC4C5(C)CC(O)C(OC6OCC(O)C(O)C6OC6OC(CO)C(O)C(O)C6O)C(C)(CO)C5CCC43C)C2C1 (stereo not drawn),-10.1,0.307,-0.6,11.7
C[C@@H]1CN([C@@H](C)CO)C(=O)c2cc(NC(=O)C3CCCCC3)ccc2O[C@H]1CN(C)CC1CCCCC1,1.0,0.0497,0.9,2.3
C[C@@H]1CN([C@H](C)CO)C(=O)c2cc(NS(=O)(=O)c3ccccc3)ccc2O[C@@H]1CN(C)CC1CC1,-49.8,0.0771,x,-0.9
COc1ccc(NC(=O)Nc2ccc3c(c2)CC(=O)N([C@H](C)CO)C[C@H](C)[C@H](CN(C)S(=O)(=O)c2ccc(Cl)cc2)O3)cc1,-72.8,-0.0957,x,38.4
O=c1c(-c2nn[nH]n2)coc2ccccc12,-58.5,-0.103,0.5,-8.3
CC(=O)c1ccc(O[C@@H]2O[C@H](CO)[C@@H](O)[C@H](O)[C@H]2O)c(/C=C/C(C)(C)O)c1,-34.3,0.209,0.6,-11.9
COc1ccc(S(=O)(=O)Nc2ccc3c(c2)C(=O)N([C@@H](C)CO)C[C@H](C)[C@@H](CN(C)C(=O)Nc2ccc(F)cc2)O3)cc1,-31.9,0.0732,0.4,2.6
O=C(Cn1cnc([N+](=O)[O-])n1)Nc1ccc(N2CCOCC2)c(Cl)c1,x,x,2.7,5.6
C[C@@H]1CCCCO[C@H](CN(C)C(=O)Nc2ccc(F)cc2)[C@@H](C)CN([C@H](C)CO)C(=O)c2cc(NC(=O)Nc3ccc4c(c3)OCO4)ccc2O1,7.5,-0.0714,x,2.9
C[C@@H]1CN([C@H](C)CO)C(=O)c2cccc(NC(=O)c3ccc(-c4nccs4)cc3)c2O[C@@H]1CN(C)Cc1ccc2c(c1)OCO2,16.8,0.156,0.3,-10.6
C[C@@H]1CN([C@H](C)CO)C(=O)c2cccc(NC(=O)c3nc4ccccc4s3)c2O[C@H]1CN(C)Cc1ccc(C(F)(F)F)cc1,-13.3,0.144,-4.0,24.8
COc1ccc(Cl)cc1N(CC(=O)Nc1ccc(Br)cc1F)S(C)(=O)=O,x,x,0.8,5.6
COc1ccc(S(=O)(=O)Nc2cccc3c2O[C@H](CN(C)Cc2ccc(C(F)(F)F)cc2)[C@H](C)CN([C@H](C)CO)C3=O)cc1,24.9,-0.0959,-0.2,-0.4
C[C@@H]1CN([C@@H](C)CO)C(=O)c2cccc(NC(=O)C3CCCCC3)c2O[C@H]1CN(C)C(=O)NC1CCCCC1,-4.2,0.2,2.2,11.2
O=C(Cn1cnc2scc(-c3cccc([N+](=O)[O-])c3)c2c1=O)Nc1ccc(F)c(Cl)c1,x,x,-0.9,66.2
CCOc1ccc(OCC(=O)Nc2cccc(C(=O)O)c2)cc1,x,x,1.0,73.2
CC(C)NC(=O)Nc1cccc2c1O[C@@H](CN(C)C(=O)Nc1cccc3ccccc13)[C@@H](C)CN([C@@H](C)CO)C2=O,-10.6,-0.286,2.2,16.4
Cn1nnnc1SCC(=O)Nc1ncccn1,x,x,2.4,-0.8

# Entries from the list above containing an aryl thioether with sulfur outside any ring (two):
SMILES,Hedgehog inh,YB-1 expr inh,PD-1 reversal,MITF inhib
Cc1ccc(NC(=O)c2ccc(CSc3nnc(-c4ccc(NC(=O)c5ccccc5Cl)cc4)n3C)cc2)cc1,x,x,-1.4,-22.2
Cn1nnnc1SCC(=O)Nc1ncccn1,x,x,2.4,-0.8

# More compounds follow:
SMILES,Hedgehog inh,YB-1 expr inh,PD-1 reversal,MITF inhib
C[C@@H]1CN([C@@H](C)CO)C(=O)c2cc(NS(=O)(=O)c3ccc(F)cc3)ccc2O[C@@H]1CN(C)C,x,-0.00883,1.6,2.6
CCOC(=O)c1c(C)noc1-c1ccco1,-46.2,-0.214,-0.3,-12.0
COc1cc(Cl)c(C)cc1NC(=O)C1CCC(=O)N1S(=O)(=O)c1ccc(C)cc1 (stereo not drawn),x,x,3.1,26.5
C[C@@H]1CN([C@H](C)CO)C(=O)c2cccc(NC(=O)C3CCOCC3)c2O[C@H]1CN(C)Cc1ccc(Cl)c(Cl)c1,70.4*,0.00471,-4.0,1.5
COc1ccccc1-n1c(SCC(=O)c2ccc3c(c2)CCCC3)nc2ccccc2c1=O,x,x,1.8,1.6
O=C(CNS(=O)(=O)c1ccccc1)Nc1ccc2c(c1)OCCO2,x,x,-0.5,-81.4
Cc1ccc(C)c(NC(=O)CN(c2ccc(C)c(Cl)c2)S(C)(=O)=O)c1,x,x,-2.5,16.3
C[C@@H]1CCCCO[C@@H](CN(C)Cc2ccccc2)[C@@H](C)CN([C@H](C)CO)C(=O)c2cc(NS(=O)(=O)c3ccccc3)ccc2O1,22.5,0.175,-3.3,-2.3
Cc1noc(C)c1NC(=O)Nc1ccc2c(c1)CC(=O)N([C@@H](C)CO)C[C@H](C)[C@@H](CN(C)Cc1ccc(Cl)c(Cl)c1)O2,19.4,0.054,-0.5,2.5
O=[N+]([O-])c1ccc(OCc2nc(-c3ccncc3)no2)cc1,x,x,-0.7,-21.7
COc1ccc(S(=O)(=O)Nc2ccc3c(c2)CC(=O)N([C@H](C)CO)C[C@H](C)[C@H](CN(C)S(=O)(=O)c2ccc(C)cc2)O3)cc1,28.6,0.197,0.3,-1.5
Nc1nnc(SCC(=O)Nc2ccc(I)cc2)s1,x,x,-0.1,-30.5
COc1ccc(C(=O)NCc2ccc(C(=O)O)o2)cc1,x,x,1.8,-7.2
Cc1cccc(-n2c3c(c(=O)[nH]c2=S)C(NC(=O)CN2CCCC2=O)(C(F)(F)F)C(=O)N3)c1 (stereo not drawn),x,x,1.9,-8.0
COc1ccc(S(=O)(=O)Nc2ccc3c(c2)CC(=O)N([C@@H](C)CO)C[C@H](C)[C@H](CN(C)Cc2ccc(C(=O)Nc4ccccc4N)cc2)O3)cc1,x,-0.937,-0.7,0.0
C[C@H](CO)N1C[C@H](C)[C@H](CN(C)Cc2ccccc2)Oc2ccc(NC(=O)Cn3cnnn3)cc2C1=O,x,-0.269,x,5.4
C[C@@H]1CN([C@@H](C)CO)C(=O)c2cccc(NS(=O)(=O)c3ccccc3)c2O[C@@H]1CN(C)CC1CCCCC1,-20.7,-0.631,0.8,-13.5
C[C@H]1CN([C@@H](C)CO)C(=O)c2cc(NC(=O)c3ccncc3)ccc2O[C@H]1CN(C)C(=O)NC1CCCCC1,x,-0.349,-8.5,-5.0
C[C@@H]1CN([C@H](C)CO)C(=O)c2cccc(NC(=O)Nc3cccc4ccccc34)c2O[C@@H]1CN(C)Cc1ccc2c(c1)OCO2,8.9,-0.665,1.1,0.9
Cc1ccc(S(=O)(=O)NCC(=O)N2CCC(C)CC2)cc1,x,0.595,1.9,4.4
N=c1ccccn1CC(O)c1ccccc1 (stereo not drawn),1.5,-0.564,0.6,0.8
CN1C(=O)CC(c2ccccc2)C1=O (stereo not drawn),-56.9,-0.0455,x,16.4
C[C@@H]1CN([C@@H](C)CO)C(=O)Cc2cc(NC(=O)Nc3ccc(C(F)(F)F)cc3)ccc2O[C@@H]1CN(C)CC1CCCCC1,-2.3,0.208,1.8,7.6
C[C@H](CO)N1C[C@H](C)[C@H](CN(C)S(=O)(=O)c2cccs2)Oc2c(NC(=O)c3ccc(-c4nccs4)cc3)cccc2C1=O,92.0*,-0.535,-3.4,45.3
COC(=O)c1ccc(NC(=O)CSc2ncnc3sc(C)c(C)c23)cc1,x,x,-0.4,1.4
COc1ccc(CN(C)C[C@@H]2Oc3ccc(NC(=O)Nc4cccc5ccccc45)cc3C(=O)N([C@H](C)CO)C[C@@H]2C)cc1,26.0,0.122,-0.9,1.0
COc1ccc(NC(=O)Nc2ccc3c(c2)C(=O)N([C@@H](C)CO)C[C@H](C)[C@@H](CN(C)C(=O)Nc2c(C)noc2C)O3)cc1,-19.5,0.00331,1.4,-1.1
COc1ccccc1NC(=O)CSc1ccccn1,x,x,-1.5,6.8
C[C@H](CO)N1C[C@H](C)[C@H](CN(C)S(C)(=O)=O)Oc2ccc(NC(=O)NC3CCCCC3)cc2CC1=O,-45.9,0.264,0.9,14.6
C[C@H](CO)N1C[C@H](C)[C@H](CN(C)Cc2ccc(C(=O)O)cc2)Oc2ccc(NS(=O)(=O)c3ccc(F)cc3)cc2C1=O,x,-0.0801,3.6,2.2
COc1ccc(NC(=O)CN(C)S(=O)(=O)c2ccc(C)cc2)cc1OC,x,x,1.1,-0.7
COc1cc(O)c(Cc2ccccc2O)c(O)c1C(=O)CCc1ccccc1,30.5,0.141,-0.2,75.5
Cc1cc(C)c2c(=O)[nH]c(SCC(=O)c3cccs3)nc2n1,x,x,3.2,2.9
C[C@@H]1CN([C@H](C)CO)C(=O)Cc2cc(NS(=O)(=O)c3cccs3)ccc2O[C@H]1CN(C)Cc1ccc(C(=O)Nc2ccccc2N)cc1,x,-0.355,-0.2,-9.1
Cc1noc(C)c1NC(=O)N(C)C[C@H]1Oc2ccc(NC(=O)C3CC3)cc2C(=O)N([C@H](C)CO)C[C@@H]1C,6.3,-0.117,x,-9.2
C[C@@H]1CN([C@H](C)CO)C(=O)c2cc(NC(=O)Nc3ccc4c(c3)OCO4)ccc2O[C@@H]1CN(C)C(=O)Nc1ccccc1,-31.8,0.588,x,-1.4
Cc1ccc([N+](=O)[O-])cc1NC(=O)CN(C)S(=O)(=O)c1ccc(Br)cc1,x,x,0.6,-6.5
C[C@H]1CN([C@@H](C)CO)C(=O)Cc2cc(NC(=O)CCCCCC(=O)Nc3ccccc3N)ccc2O[C@@H]1CN(C)CC1CC1,x,-0.216,1.6,-6.0
O=C(CNS(=O)(=O)c1ccccc1)Nc1cc(Cl)cc(Cl)c1,x,x,-1.0,5.1
COc1ccc(-c2coc3cc(O)ccc3c2=O)c(OC)c1O,-2.8,-0.323,x,-12.8
Cc1noc(C)c1NC(=O)Nc1ccc2c(c1)CC(=O)N([C@@H](C)CO)C[C@@H](C)[C@@H](CN(C)C(=O)Nc1ccc(C(F)(F)F)cc1)O2,-12.2,0.054,x,-2.9
CCc1cc(C)cc(OCCNC(=O)c2ncn[nH]2)c1,x,x,-0.2,-24.8
COc1ccc(CN(C)C[C@H]2Oc3ccc(NC(=O)Nc4ccc5c(c4)OCO5)cc3CC(=O)N([C@@H](C)CO)C[C@@H]2C)cc1,-0.6,0.269,x,1.4
Cc1ccnc(SCC(=O)Nc2cccc(C(F)(F)F)c2)n1,x,x,-0.8,-0.8
C[C@H](CO)N1C[C@H](C)[C@@H](CN(C)S(=O)(=O)c2ccccc2)Oc2ccc(N(C)C)cc2C1=O,8.3,-0.275,0.2,-0.6
C[C@H]1CN([C@@H](C)CO)C(=O)Cc2cc(NC(=O)Nc3ccc(C(F)(F)F)cc3)ccc2O[C@H]1CN(C)Cc1ccc(-c2ccccc2)cc1,-1.5,0.0794,-3.5,15.8

# Fetched by compound from the list above, 2 records:
SMILES,Hedgehog inh,YB-1 expr inh,PD-1 reversal,MITF inhib
C[C@@H]1CN([C@H](C)CO)C(=O)Cc2cc(NS(=O)(=O)c3cccs3)ccc2O[C@H]1CN(C)Cc1ccc(C(=O)Nc2ccccc2N)cc1,x,-0.355,-0.2,-9.1
CCc1cc(C)cc(OCCNC(=O)c2ncn[nH]2)c1,x,x,-0.2,-24.8
